# Bioassay records as filed in PubChem BioAssay.
# Mtb hypoxia rep: PubChem AID 1159583 | M. tuberculosis hypoxia-regulated fluorescent reporter, fluorescence | fluorescence inhibition, % (concentration not given with the values) | hit rate 0.1% among 300,000;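 active means 35 to 45% if threefold the growth effect, above 45% if 1.5-fold the growth effect; inactive means the rest, general growth blockers included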;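 further: wells of about 50 µL received 100 nL stock; 0% = vehicle wells and 100% = reference inhibitor wells; whole bacteria with a GFP reporter of the hypoxia response; strong numbers were not always called active; many hits fall short of the cut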
# Sa RN4220 lethal: growth inhibition of S. aureus RN4220, primary screen, OD600; AID 1259311, 2017; inhibition, % (concentration not given with the values); 16 h; hit rate 0.33% among 330,000;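 active means z-score of -3 or lower and OD600 up to 0.18 on both plates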;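 further: plate controls were untreated cells for no effect and reference antibiotic for full effect; stock transfer was 100 nL into about 80 µL; one replicate is shown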
# Autofluor counter: flagged as autofluorescent in microsphere protease counterscreen | AID 624483 | hit rate 3.1% among 360,000 | fluorescence intensity (concentration not given with the values) | compound autofluorescence counterscreen, microsphere flow cytometry; hits give high values;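 active means at least 3 SD above the mean of all compounds, about 16000 in these data; inconclusive means too few beads counted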;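 further: 100 nL of 1 mM stock went into each well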
# Sa ugtP lethal: growth inhibition of ugtP-null S. aureus, primary screen, RN4220 ugtP deletion, OD600; 16 h; some inactives read as strong as hits; growth inhibition, % (concentration not given with the values); hit rate 0.54% among 330,000;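 active means z-score under -3 and OD600 up to 0.15 on both plates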;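 further: plate controls were untreated wells for no effect and antibiotic for full effect; wells of about 80 µL received 100 nL stock; the first replicate is given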
# BJeLR viability: MLPCN primary cell-based screen for lethality selective to Ras in HRASV12 cells; BJeLR (HRASV12) viability, CellTiter-Glo ATP luminescence, 48 h; reference of the scale not given here; inhibition, % (test concentration not listed); hit rate 0.17% among 300,000;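 active means replicate mean above 50%; inconclusive means above 50% but judged a plate artefact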;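 further: 50 nL library stock added to about 25 µL; numbers are from one replicate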
# PrP UTR inh: inhibition of PrP 5' UTR reporter expression. cell-based PrP 5' UTR mRNA reporter, plate reader. inhibition, % (no concentration beside the values). hit rate 0.35% among 340,000. AID 488862, 2010;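 active means every replicate at 50% or more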;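 further: 0 = median of the neutral control wells; tested in H4 reporter cells; numbers are from one replicate; inactives centre near -14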
# Mtb hypoxia rep growth: second read-out of Mtb hypoxia rep, no call of its own (marks repeat the call); growth inhibition, %; measured here: M. tuberculosis growth (absorbance);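 0% = vehicle and 100% = reference antibiotic; read after six days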
# The depositor's hits bear a star; ? = inconclusive; . = no result given.
SMILES,Mtb hypoxia rep,Mtb hypoxia rep growth,Sa RN4220 lethal,Autofluor counter,Sa ugtP lethal,BJeLR viability,PrP UTR inh
Cc1ccc(S(=O)(=O)N2CCC[C@H]2C(=O)OC(C)C(=O)Nc2ncc(Cl)cc2Cl)cc1 (some centres undefined),9,3,2.1,3780,5,0,-4
COc1cccc(OC)c1C(=O)Nc1cc(C)nn1-c1nc2ccccc2[nH]1,11,11,5.9,3484,-5,10,54
CCOC(=O)c1sc(N2C(=O)C(O)=C(C(=O)c3ccco3)C2c2cccc(Cl)c2)nc1C (centres undefined),.,.,.,6085,.,12,-26
COc1cccc(N2CC(O)=C(c3nc4ccccc4s3)C2=N)c1,-6,13,3.3,2615,-3,6,-43
Cc1c(C=NNc2nc3ccccc3[nH]2)c2ccccc2n1C,-13,-16,99*,.,99*,.,.
COc1ccc(C(=O)n2nc(-c3ccc(Cl)cc3)nc2N)cc1OC,.,.,.,2462,.,0,-16
COc1c(C(=O)Nc2ccc(CN3CCOCC3)cc2)cc2ccccc2c1Br,-10,-2,0.1,?,-1,-14,-2
CN(/N=C/Cc1nnnn1-c1ccc(Cl)cc1)c1ccccc1,.,.,.,6134,.,-1,-17
O=c1cc(CSCc2ccc(Cl)cc2)[nH]c(=O)[nH]1,-5,7,3.8,5114,8,-14,-29
Cc1ccc(-c2ccc(/C=C3/NC(=O)NC3=O)o2)cc1[N+](=O)[O-],-2,-3,9.4,2049,-14,16,-26
O=C(Nc1cccc(Cl)c1)Nc1cccc(C(=O)O)c1,8,17,0.4,3771,4,-4,11
N#C/C(=C/c1ccc(N2CCOCC2)o1)C(=O)NC1CCCCC1,21,22,5.8,3524,5,-2,-43
NC(=O)Nc1n[nH]c(-c2ccccc2)n1,-6,-10,3.6,3570,-1,-6,-18
CCN(CC)CCN(CC(=O)N(C1CCCCC1)C1CCCCC1)C(=O)c1cccnc1,11,3,5.8,2707,2,-2,-4
CSCC[C@H](NC(=O)c1cccs1)c1nnc2ccccn12,3,6,-0.9,5604,1,8,-23
CCOc1cc(/C=C(/C#N)c2ccc(Cl)cc2)cc(Cl)c1OCC(=O)O,8,11,22,4217,0,.,34
Cn1c(=O)c2c(nc(CN3CCN(C(c4ccccc4)c4ccccc4)CC3)n2CCCO)n(C)c1=O,.,.,.,3440,.,-4,-10
COc1ccc(CCNC(=O)c2ccc(CN3CCC(Cc4ccccc4)CC3)cc2)cc1OC,-2,12,3.1,2551,3,6,0
CC(C)NS(=O)(=O)c1ccc(NC(=O)Cc2cccs2)cc1,2,10,4.9,1996,3,-3,-29
c1ccc2c(-c3nnc4n3CCCCC4)cc(-c3ccncc3)nc2c1,7,1,4.0,2388,16,-12,5
CCCCc1ccc(NC(=O)c2ccc(N(C)S(C)(=O)=O)cc2)cc1,-1,3,-0.6,3640,11,5,11
CC(C)C(NS(=O)(=O)c1ccc2c(c1)oc(=O)n2C)C(=O)N1CCN(Cc2ccccc2)CC1 (centres undefined),.,.,3.7,4494,4,.,-11
CCCC(=O)c1c(C)c2ccccc2n1C,2,8,8.1,9557,44,-6,-22
COC(=O)CSc1nc2cc(C)cc(C)c2cc1C#N,3,13,1.7,4463,-2,-6,-62
Nc1ncnc2c1ncn2[C@@H]1O[C@H](CNCc2ccc(-n3cccn3)cc2)[C@@H](O)[C@H]1O,-9,-4,0.2,4058,-5,.,-4

# Pulled one by one from above:
SMILES,Mtb hypoxia rep,Mtb hypoxia rep growth,Sa RN4220 lethal,Autofluor counter,Sa ugtP lethal,BJeLR viability,PrP UTR inh
N#C/C(=C/c1ccc(N2CCOCC2)o1)C(=O)NC1CCCCC1,21,22,5.8,3524,5,-2,-43
c1ccc2c(-c3nnc4n3CCCCC4)cc(-c3ccncc3)nc2c1,7,1,4.0,2388,16,-12,5

# Following part
SMILES,Mtb hypoxia rep,Mtb hypoxia rep growth,Sa RN4220 lethal,Autofluor counter,Sa ugtP lethal,BJeLR viability,PrP UTR inh
CN1CCN(C(=O)c2cc(-c3ccccc3)on2)CC1,11,0,4.0,4323,7,-2,-20
CCCC(C(=O)NC(C)(C)C)N(CCN1CCOCC1)C(=O)CNS(=O)(=O)c1ccccc1 (centres undefined),4,11,0.7,3511,1,-6,-8
O=C(c1ccc(S(=O)(=O)c2ccccc2Cl)c([N+](=O)[O-])c1)N1CCN(Cc2ccccc2)CC1,2,4,-2.1,2188,15,0,-5
Cc1cc(C)c(C#N)c(Sc2ccc(N)cc2)n1,2,6,3.1,2229,23,-5,-8
CN(c1ccccc1C(=O)Nc1cccc(Br)c1)S(=O)(=O)c1ccccc1,2,6,0.6,3170,3,1,-16
O=C(NCc1ccc(Cl)cc1)c1nccnc1CO,-1,2,2.0,3589,13,-7,-17
COc1ccc(S(=O)(=O)Nc2nc(C(F)(F)F)cs2)cc1,7,1,5.2,2960,-8,-9,-41
O=C(O)c1ccc(CNC(=O)c2ccc3c(c2)C(=O)N(Cc2cccnc2)C3=O)cc1,11,-1,3.8,4202,13,.,-7
Cc1ccc(Nc2c3c(nc4ncnn24)CCC3)cc1,-3,-2,-0.5,23876*,1,-9,15
COc1ccc(CN(C)S(=O)(=O)c2c(C)noc2C)cc1OC,9,4,-2.3,?,0,.,-5
O=C(NC1CCCCC1)[C@@H]1CC=C[C@@H]2CCN(Cc3ccccc3)C(=O)[C@@H]21,.,.,.,4158,.,5,-13
COc1n[nH]c2nncnc12,6,3,5.7,2759,0,-2,-35
O=C(Nc1nc2ccccc2s1)Nc1ccc(F)cc1F,0,13,2.8,3350,-9,22,-77
COc1cc(-c2c(NC(=O)c3ccco3)oc3c(C)cccc3c2=O)cc(OC)c1OC,-3,-1,0.0,5693,2,-6,-10
Oc1ccc(-c2n[nH]c(=S)n2Cc2ccccc2)cc1,8,14,3.7,2555,7,1,-5
CCSc1nnc(NC(=O)CSc2nc3c(c(=O)n2CCOC)SC(C)C3)s1 (centres undefined),4,16,-9.7,5792,-3,-6,-10
COc1cccc(C(C(=O)NC2CCCC2)N(C(=O)CNC(=O)c2ccco2)c2cccnc2)c1 (centres undefined),9,5,3.7,2994,2,0,-5
Clc1ccc(SCCCCn2ccnc2)cc1,.,.,-8.7,3069,-5,0,-8
COc1cccc(C(=O)NCCn2ccc3ccccc32)c1,4,8,3.3,5004,-4,9,-30
COc1ccccc1N1CCN(C(CNS(=O)(=O)c2ccc(C)cc2)c2cccnc2)CC1 (centres undefined),-7,12,-4.4,3758,-6,0,-11
O=C(Nc1cccc(F)c1)/C(=C\c1cccnc1)NC(=O)c1cccs1,-6,5,2.7,9397,-2,-3,-1
CCOc1ccccc1NC(=O)NCc1ccccc1F,1,0,1.6,3969,0,15,-9
COc1ccc(N2CCN(C(=O)COC(=O)CCS(=O)(=O)c3ccc(C)cc3)CC2)cc1,-2,-5,1.6,.,1,0,5
COC(=O)N/N=C(C)/C=C/c1ccccc1,.,.,.,2284,.,-3,-34
O=C(Nc1ccccc1)/C(=C/c1ccccc1)NC(=O)c1ccco1,15,10,6.4,5193,1,-1,-20
SMILES,Mtb hypoxia rep,Mtb hypoxia rep growth,Sa RN4220 lethal,Autofluor counter,Sa ugtP lethal,BJeLR viability,PrP UTR inh
COC(=O)c1[nH]c2ccc(Br)cc2c1NC(=O)CN1CCN(C2CCCCC2)CC1,8,16,0.3,2634,19,-8,-10
O=[N+]([O-])c1cc(CN2CCN(c3cccc(C(F)(F)F)c3)CC2)c2cccnc2c1O,6,8,61,.,86*,8,8
O=C(CSc1oc(-c2cccs2)nc1S(=O)(=O)c1ccccc1)NC1CCCCC1,8,6,0.2,16098,5,0,-18
CN(C)c1ccc(-c2nc3ccccn3c2N=Cc2ccc(Br)cc2)cc1,1,6,1.4,.,-2,.,.
O=C(O)c1ccc(-c2noc(-c3ccccc3Cl)n2)cc1,1,4,7.8,4345,4,3,-123
O/N=C1\CC2(Cc3nonc31)OCCO2,.,.,.,3683,.,2,-9
O=C(CSc1nnc(-c2ccncc2)o1)Nc1nncs1,2,12,-0.2,3741,-1,4,-12
CCn1nc(C)c(CN2CCCC(CNS(=O)(=O)c3ccc(OC)cc3)C2)c1C (centres undefined),5,2,-1.2,5790,6,-5,-9
COCCCNC(=O)Cn1ccc(N)nc1=O,5,5,-5.4,4848,-4,.,10
CC(=O)c1ccc(N2CCN(S(=O)(=O)c3c(C)[nH]c(C)c3C(=O)N3CCCC3)CC2)cc1,-8,-2,-3.0,5354,0,-9,-14
CC1(C)CC(NC(=O)C2CCN(S(=O)(=O)c3ccccc3C(F)(F)F)CC2)CC(C)(C)N1,6,5,0.1,6272,7,-2,-7
Cc1ccc(-n2nc3c(=O)n(CC(=O)NCCC4=CCCCC4)nc(C)c3c2C)cc1,-10,9,-1.3,5421,-2,-3,-5
[NH-]c1ncnc2c1N=C[N+]2=CC=CCO,9,1,1.3,3704,-1,3,-23
COc1cc(C2C(C#N)=C(N)N(c3sc4c(c3C#N)CCCC4)C3=C2C(=O)CC(C)(C)C3)cc(OC)c1OC (centres undefined),-5,4,1.6,3936,2,2,-20
O=C(Nc1ccc2c(c1)OCO2)c1ccccc1,6,1,0.7,5896,-2,-7,-147
NS(=O)(=O)c1ccc(CCN=C(NS(=O)(=O)c2cccs2)c2ccccc2)cc1,6,2,5.8,3765,6,-10,-20
CSCCC(=O)N1CCC(n2nccc2NC(=O)CCCc2ccccc2)CC1,4,3,1.4,5833,7,-1,-25
CSc1ncnc2c1cnn2-c1ccc(C)cc1C,1,10,4.7,4463,4,0,-51
Cn1c(=O)c2c(nc(CN3CCc4ccccc4C3)n2Cc2ccccc2)n(C)c1=O,-1,5,7.4,3897,-8,3,-11
C=CCNc1oc(-c2cccc(F)c2)nc1C#N,-3,-6,2.8,2901,0,.,5
CCOc1ccccc1NC(=S)NC(=O)c1ccco1,8,0,8.6,6017,9,-10,-28
CC1CC(C)CN(C(=O)C(NS(=O)(=O)c2ccc(Br)s2)c2ccccc2)C1 (centres undefined),-3,1,10,2314,-16,6,-13
C/C(=N\NC(=O)c1ccc(Cl)c(Cl)c1)c1ccc(Br)s1,.,.,.,2186,.,23,37
Cc1nc(N[C@@H](Cc2c[nH]c3ccccc23)C(=O)O)c2oc3ccccc3c2n1,2,13,3.8,.,7,.,-9
O=C(Nc1ccccc1)Nc1cccc(C(F)(F)F)c1,-11,-3,-3.8,4369,-28,9,-9

# Record cards, as listed above. Order of screens: Mtb hypoxia rep	Mtb hypoxia rep growth	Sa RN4220 lethal	Autofluor counter	Sa ugtP lethal	BJeLR viability	PrP UTR inh
# Shown for Cc1cc(C)c(C#N)c(Sc2ccc(N)cc2)n1 → 2	6	3.1	2229	23	-5	-8
# Shown for CN(c1ccccc1C(=O)Nc1cccc(Br)c1)S(=O)(=O)c1ccccc1 → 2	6	0.6	3170	3	1	-16
# Shown for O=C(O)c1ccc(-c2noc(-c3ccccc3Cl)n2)cc1 → 1	4	7.8	4345	4	3	-123

# (list continues)
SMILES,Mtb hypoxia rep,Mtb hypoxia rep growth,Sa RN4220 lethal,Autofluor counter,Sa ugtP lethal,BJeLR viability,PrP UTR inh
CCOC(=O)N1CCN(C(=O)c2c(O)c3cccc4c3n(c2=O)CC4)CC1,1,2,8.6,3372,4,4,-6
CNS(=O)(=O)c1cccc(C(=O)OCC(=O)Nc2nc(OC)cc(OC)n2)c1,7,18,-1.7,8512,-2,.,-4
O=C(Nc1ccccc1)OC1CCC2CC1CCC2OC(=O)Nc1ccccc1 (centres undefined),-1,3,37,2351,5,-10,3
CCOc1ccc(C(C(=O)NC2CCCCC2)N(C(=O)c2csnn2)C2CC2)cc1 (centres undefined),10,1,4.3,4012,13,-3,-2
Cc1cc(C)c(S(=O)(=O)N2CCCOC2CNC(=O)C(=O)NCc2cccnc2)c(C)c1 (centres undefined),-6,-13,7.6,2272,1,-4,-2
CCOC(=O)[C@@H]1[C@H]2COc3ccc(Br)cc3[C@H]2N2C(=O)N(c3ccc(F)cc3)C(=O)[C@]12C,.,.,.,2915,.,-2,-14
NC(=O)C1=CC(c2ccc3c(c2)OCO3)CC(OCCCCO)O1 (centres undefined),0,-14,6.4,.,0,.,.
COc1ccc(C(=O)Nc2nnc(SCC(=O)NC3CCCC3)s2)c(OC)c1,-6,11,-0.7,6721,-12,-7,19
COc1cc(CN2CC(=O)N(c3ccc(C)c(Cl)c3)C2=S)cc(OC)c1OC,-7,-3,0.5,4505,-2,14,9
O=C(C1CCCCC1)N1CCN(c2ccnc3cc(Cl)ccc23)CC1,2,20,4.6,4845,-10,-3,2
Cc1cc2nc(C)n(CCCNC(=O)Nc3ccc(C#N)cc3)c2cc1C,.,.,.,2705,.,11,-6
